# ClpP mod – qHTS Assay for Activators of ClpP; ATP-dependent Clp protease proteolytic subunit (Bacillus subtilis (strain 168)), P80244; purified B. subtilis ClpP, FRET peptide cleavage, 20 min; Potency, µM (doses to about 57.5 µM), inactives show at the highest dose activity change, negative = active; actives 1.9% (n = 340,000); active = well fitted falling curve with a large enough effect; inconclusive = small, poorly fitted or top-dose-only effect; inactive = no such curve, though single readings can be large or run the other way; note: potency is the fitted concentration of half-maximal effect; the source files actives as falling curves though it sought activators and does not explain the sign; nearly all actives have a fitted effect of over 65% in size; many hits overshoot -100%
# Target sequence (P80244 whole entry, looked up): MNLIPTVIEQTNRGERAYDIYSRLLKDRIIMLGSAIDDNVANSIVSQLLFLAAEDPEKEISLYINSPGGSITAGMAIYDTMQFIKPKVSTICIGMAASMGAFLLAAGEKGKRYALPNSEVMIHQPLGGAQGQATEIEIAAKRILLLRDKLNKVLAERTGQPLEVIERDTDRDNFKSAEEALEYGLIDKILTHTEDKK
#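 Buffer: 100 mM Tris/HCl pH8, 100 mM KCl, 0.05% low protease BSA, 2.5% glycerol, 0.01% Tween-20. ClpP 10 microg/mL final; 20 min RT; delta FRET normalized to ADEP and DMSO controls.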
# gsp agonist – gsp mutant agonism; gsp mutant cells, cAMP HTRF, 30 min; control for the full effect not named in the record; Potency, µM (doses to about 76.9 µM), for inactives: top-dose activation (cAMP increase), most hits filed as activators; actives 0.13% (n = 340,000); AID 624287; active = well fitted activation curve with a large enough effect; inconclusive = small, poorly fitted or top-dose-only effect, or another doubt; inactive = no such curve, though single readings can be large or run the other way; cell line not stated here;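 note: phosphodiesterase inhibitor Ro 20-1724 added with compounds to block cAMP breakdown; potency is the fitted concentration of half-maximal effect; nearly all actives have a fitted effect of over 60% in size; about a fifth of the inactives were tested at one dose only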
#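 Cells in DMEM/10% FBS with G418 were pretreated with compounds in DMSO plus […] (300 uM stock) for 30 min at 37C. cAMP was measured by HTRF (cAMP-d2 plus anti-cAMP antibody-K) after 30 min at room temperature.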
# Sfp inh – Sfp phosphopantetheinyl transferase inhibition; Q9F4F7; Potency, µM, inactives show max response, negative = inhibition, usual class: inhibitors; actives 3.5% (n = 310,000); Biochemical Sfp PPTase activity, qHTS; active = well fitted inhibition curve with a large enough effect; inconclusive = small, poorly fitted or top-dose-only effect, or another doubt; inactive = no such curve, though single readings can be large or run the other way;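 note: the enzyme is Sfp with the accession as filed and its product quenches rhodamine fluorescence; potency is the fitted concentration of half-maximal effect; 0% = enzyme reaction without inhibitor and -100% = no enzyme wells; top concentration of the series not given in the record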
#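 Buffer: 50 mM Hepes-Na pH 7.6, 10 mM MgCl2, 0.01% Nonidet P-40, 0.01% BSA. Enzyme 15 nM, pre-exposed to compound 15 min; substrates then added and fluorescence change tracked over 30 min.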
# TRPML1 blocker – human mucolipin-1 channel inhibition; Q9GZU1; TRPML1-inducible cells, Ca2+ dye fluorescence, FDSS; stronger effect = lower value; inhibition of EC80 agonist-evoked calcium signal; activity change, negative = inhibition, % (test concentration not listed); actives 0.02% (n = 390,000); in the data active means activity change below about -50%; inconclusive means about -30% to -50%; inactive means above about -30%;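 note: stimulus is agonist 54-4 at its EC80 concentration; % is set by controls: 0 for no effect and ±100 for the full control effect; compound concentration not given in the record; the text of the record puts the active cut at -80%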
# Target sequence (Q9GZU1 whole entry, looked up): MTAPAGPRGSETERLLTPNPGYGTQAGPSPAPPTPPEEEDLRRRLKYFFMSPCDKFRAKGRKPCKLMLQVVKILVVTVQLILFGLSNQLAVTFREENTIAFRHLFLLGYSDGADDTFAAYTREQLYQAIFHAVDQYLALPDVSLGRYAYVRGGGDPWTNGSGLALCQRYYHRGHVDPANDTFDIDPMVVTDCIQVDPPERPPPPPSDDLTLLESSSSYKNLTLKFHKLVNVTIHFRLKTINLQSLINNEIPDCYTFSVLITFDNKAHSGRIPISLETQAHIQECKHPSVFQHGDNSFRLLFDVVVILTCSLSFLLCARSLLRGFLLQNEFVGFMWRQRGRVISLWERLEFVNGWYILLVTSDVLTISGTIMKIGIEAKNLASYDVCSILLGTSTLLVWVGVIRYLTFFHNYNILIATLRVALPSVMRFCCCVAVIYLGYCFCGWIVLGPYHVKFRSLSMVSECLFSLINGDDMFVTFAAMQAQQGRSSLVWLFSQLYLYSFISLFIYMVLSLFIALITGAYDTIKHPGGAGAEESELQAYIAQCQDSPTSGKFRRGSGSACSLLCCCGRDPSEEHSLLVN
#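 TRPML1-DL cells, Tet-induced overnight (~16 h, 37 °C) at 1,500 cells/well, were loaded with Ca8 no-wash dye plus quencher for 45-90 min at room temperature. Compounds were pinned during FDSS kinetic reading; agonist 54-4 at EC80 (4 uM final) then added.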
# Menin MLL FP FL – inhibitors of human menin-MLL interaction, wild-type MLL peptide. Fluorescence polarization, fluorescein-MLL peptide displacement from menin. FP activity change, % at 61.4 µM. 290,000 tested, under 10 active. AID 1766; inconclusive = falling polarisation curve, or a change in total fluorescence; inactive = total fluorescence flat and polarisation flat or rising; no compound was filed as active; the % refers to the polarisation; negative = inhibition;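 note: % of control where 0% means no effect; inhibitors lower the polarisation; unlabelled MLL peptide was the positive control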
# TRPV1 potentiator – potentiators of human vanilloid receptor 1 (TRPV1); Q8NER1; TRPV1-expressing cells, Fluo-8 calcium influx, capsaicin EC20 potentiation; host cell line not named in the record; control for the full effect not named in the record; potentiation, % at 8.33 µM; actives 0.02% (n = 320,000); AID 540277; active means potentiation above 80%; inconclusive means 30% to 80%; inactive means below 30%; note: 0% is about no effect
#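 Fluo-8 calcium influx in TRPV1-expressing cells, kinetic read (ex 480/em 520 nm). Compound added and read 3 min for agonist activity, followed by capsaicin at EC20 final and 2 min further read for enhancement.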
# gsp antagonist – gsp mutant antagonism. gsp-mutant cells, cAMP HTRF, 30 min; control for the full effect not named in the record. Potency, µM (highest dose often 76.9 µM), without a hit: at the top dose activity change, negative = inhibition, hits mostly inhibitors. actives 0.4% (n = 340,000). AID 624288; active = falling curve of any shape with a large fitted effect; inconclusive = falling curve, mostly with a smaller effect; inactive = flat or rising curve; cell line not stated here;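 note: intracellular cAMP measured with PDE inhibitor Ro 20-1724 present during compound exposure; potency is the fitted concentration of half-maximal effect; % is set by controls: 0 for no effect and ±100 for the full control effect; nearly all actives have a fitted effect of over 65% in size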
#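 Cells, 2000/well, grown 16–24 h in DMEM 10% FBS with 0.5 mg/ml G418, then compounds plus […] (300 uM addition stock), 30 min at 37C. cAMP read by HTRF (cAMP-d2 and anti-cAMP antibody-K in lysis buffer) after 30 min RT.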
# An asterisk follows results filed as active; ? = inconclusive; / = not tested or not shown; [ ] = another dose, or the depositor's remark.
# Order of results: Sfp inh	ClpP mod	TRPML1 blocker	gsp antagonist	gsp agonist	Menin MLL FP FL	TRPV1 potentiator
COC(=O)c1cccc(Oc2cccc(Cl)n2)c1
 : 11%	-0.6%	15	3%	-16%	-1.1	-36
Cc1c(C(=O)N2CCCCC2)c(S(=O)(=O)NCc2ccc(Cl)cc2)c(C)n1C
 : 11%	1.1%	-12	-5%	?	2.2	2
O=C(NS(=O)(=O)c1ccccc1)c1ccccc1
 : 27%	-2.8%	-6	6%	18%	-0.2	21
COc1ccccc1-n1c(=S)sc2c(=O)n(Cc3ccco3)c(SC)nc21
 : -1%	-2.5%	7	-10%	-13%	2.5	14
C[C@H]1C(=O)N(c2ccccc2)[C@@H]1c1ccccc1
 : /	2.6%	47	5%	/	/	/
CCCn1c(SCC(=O)Nc2cc(C)on2)nc2c1c(=O)n(C)c(=O)n2C
 : /	3.3%	2	-1%	?	/	/
COc1cccc(OC)c1C(=O)OCC(=O)/C(C#N)=C(\C)N
 : 11%	/	-9	/	8%[15.4 µM]	-1.6	-5
CCOC(=O)CSc1nc2ccc(C)cc2cc1C#N
 : -19%	-2.4%	2	-12%	-1%	1.0	-5
COc1cc(NC(=S)NCc2ccc(S(N)(=O)=O)cc2)cc(OC)c1
 : ?	/	8	7%	-35%[15.4 µM]	-3.3	?
O=C(NN=C(c1ccccc1)c1ccccc1)C(CCl)C1CCCCC1 (configuration not stated)
 : /	-1.3%	15	14%	-29%	/	-1
C1CCN2C[C@@H]3C[C@@H](CN4CCCC[C@@H]34)[C@H]2C1
 : -8%	-8.9%	-1	-2%	/	?	/
CC(C)(C)[C@H]1COC(=O)CC/C=C\C[C@@H](CC(=O)N(CCO)Cc2ccccc2)C(=O)N1
 : /	1.2%	12	3%	1%	/	/
COc1ccc(C(O)P(=O)(O)CCc2ccccc2)cc1 (configuration not stated)
 : 1%	0.5%	-2	0%	8%	-0.4	9
CCOC(=O)/C=C/C(=O)OCC(=O)Nc1cccc(Br)c1
 : 1%	/	35	5%	0%[15.4 µM]	1.2	-7
O=C(CN1C(=O)c2ccccc2S1(=O)=O)c1ccc(Cl)cc1Cl
 : /	-1.4%	5	-2%	-26%[15.4 µM]	/	/
O=C(Nc1cccc2nsnc12)c1ccc2c(c1)OCCO2
 : -5%	-7.2%	-5	-14%	?	-0.9	-11
C=CCOC(=O)C1=C(C)NC(SCC(=O)OCC)=C(C#N)C1c1ccc(O)c(OC)c1 (configuration not stated)
 : -16%	-3.5%	0	-3%	0%	12	-6
CCc1cccc(C)c1NC(=O)CSc1nc(-c2ccccc2F)nc2nc[nH]c12
 : -13%	0.3%	-21	-14%	?	7.5	-10
CCOC(=O)NCN1C(=O)C2C3C=CC(C3)C2C1=O (configuration not stated)
 : 7%	1.2%	-1	20%	12%	-2.0	0
CC(/C=C/c1ccc(Cl)o1)=C\C(=O)O
 : 32µM*	-4.1%	-10	-4%	-12%	3.8	10
CC(C)(O)C(=O)NNC(=S)NCc1ccco1
 : 9%	0.5%	13	4%	18%	-1.9	9
CCCCn1c(N)c(N(C)C(=O)c2cn(-c3ccccc3)nc2-c2ccccc2)c(=O)[nH]c1=O
 : /	0.4%	-5	4%	9%	/	3
O=C(Cn1nc(-c2ccco2)ccc1=O)Nc1cc(C(F)(F)F)ccc1Cl
 : -8%	-26%	8	8%	?	/	-1
CC(C)(C)c1ccc(OCCNCc2ccccc2)cc1
 : -19%	0.7%	-1	11%	10%[15.4 µM]	3.9	1
CC(=O)N(c1nc(/C=C\C(=O)O)cs1)c1ccccc1F
 : -4%	-5.9%	18	2%	?	-1.4	-10
Cc1ccccc1N(C(=O)CCC(=O)Nc1ccccn1)C(C(=O)NC(C)C)c1ccc(F)cc1 (configuration not stated)
 : 10%	/	1	-3%	2%[15.4 µM]	-0.4	-16
CCN1c2ccccc2-c2nc3ccccc3n2C1c1cccnc1 (configuration not stated)
 : 10%	32µM*	14	-5%	10%	0.1	0
O=C(CCN=C1NS(=O)(=O)c2ccccc21)OCC(=O)c1ccc(F)cc1
 : /	/	15	-5%	28%[15.4 µM]	/	8
C[C@@H]1CN([C@@H](C)CO)C(=O)CCCn2cc(nn2)CO[C@H]1CN(C)C(=O)Oc1ccccc1
 : /	1.2%	-9	/	-84%[inhibitor]	/	/
CCc1ccc(CCC(=O)Nc2ccc(C)cc2C)o1
 : 3%	1.1%	2	1%	-3%	-6.8	4
CC(=O)c1c(C)[nH]c(C(=O)CSc2nnc(N)s2)c1C
 : 8%	/	-11	-10%	28%	-2.3	9
COc1ccc2cc(CNCCOCCOCCNCc3ccc4cc(OC)ccc4c3)ccc2c1
 : /	-7.6%	8	19%	3%	/	/
O=C(O)[C@H](Cc1ccccc1)NC(=O)N1CCN(c2cccc(C(F)(F)F)c2)CC1
 : 10%	-2.3%	41	4%	?	5.2	7
CC1CCCCC12NC(=O)N(CC(=O)c1ccc(Cl)s1)C2=O (configuration not stated)
 : 0%	-0.4%	-7	2%	?	/	-4
CCN(CC)c1ccc(C=O)c(OC)c1
 : ?	/	-4	4%	8%[15.4 µM]	8.2	-3
COc1ccc(C(=O)C(OC(=O)c2ccccc2Cl)c2ccccc2)cc1 (configuration not stated)
 : 10%	0.4%	3	-17%	-18%	-0.8	12
[O-]/C(=C(\C(=S)NCc1ccco1)[n+]1ccccc1)c1ccccc1Br
 : 13µM*	-2.9%	11	-21%	-6%	?	4
Cc1cc(C)c(OCC(=O)N(C)CC(=O)Nc2ccc(N3CCOCC3)cc2)c(C)c1
 : 12%	0.8%	-9	6%	-36%[inhibitor]	/	8
CNc1ccc(/C=C/C(=O)c2ccc(C)cc2)cc1[N+](=O)[O-]
 : 1%	2.8%	20	-14%	14%[15.4 µM]	-0.3	10
CCOc1cc(CNCCCN2CCOCC2)cc(Br)c1OCc1ccccc1Cl
 : -19%	0.2%	-2	16%	20%	0.4	4
N#Cc1cc(-c2cccc(Cl)c2)c[nH]c1=O
 : 8%	22µM*	-15	4%	0%	1.7	11
COc1cccc(NC(=O)C(C)N2C(=O)c3ccccc3C2=O)c1 (configuration not stated)
 : 15%	0.0%	-9	12%	-5%[15.4 µM]	0.7	25
O=C(Nc1ncccc1O)c1ccc(Oc2ccccc2)cc1
 : 18%	0.0%	6	1%	6%[15.4 µM]	-16	15
CCOc1ccc(/C=N/OC(C)C(=O)NCc2ccc3c(c2)OCO3)cc1 (configuration not stated)
 : -9%	0.2%	33	8%	?	6.0	-12
CC1(C)CC(NC(=O)c2ccccc2F)CC(C)(C)N1
 : 8%	-14%	-5	5%	1%[15.4 µM]	2.0	1
O=C(O)C1=C[C@H](c2csc3ccccc23)C[C@H](OCc2ccc(CO)cc2)O1
 : 16%	-2.4%	4	-4%	/	2.3	18
O=C1Nc2cc(C(=O)N3CCN(c4ccccc4F)CC3)ccc2NC1CSCc1ccccc1F (configuration not stated)
 : 56µM*	/	/	/	/	?	-1
CCN(CC)C(=O)CSC(Nc1cccc(F)c1)=C(C#N)C#N
 : 2%	/	-6	-20%	-1%[15.4 µM]	?	7
Cc1cccc(N2CCN(c3ccc4cc(S(=O)(=O)N5CCCCC5)ccc4n3)CC2C)c1 (configuration not stated)
 : 4%	?	4	12%	23%	1.9	2
CCCNC(=O)c1ccccc1NC(=O)COc1cccc2c1OC(C)(C)C2
 : /	-16%	2	7%	-7%[15.4 µM]	/	-16
CCOc1cccc2sc(N(CCCN(C)C)C(=O)c3ccc(S(=O)(=O)N(C)c4ccccc4)cc3)nc12
 : ?	-0.3%	-11	-3%	-21%	-6.8	6
COC(=O)C1(CCSC)NC(c2ccccc2OC)C2C(=O)N(C)C(=O)C21 (configuration not stated)
 : 12%	-0.2%	15	-7%	-15%	6.7	-38
COc1cccc(C(=O)NNC(=O)C2CC(C)=C(C)CC2C(=O)O)c1 (configuration not stated)
 : 4%	-1.4%	-8	6%	11%	0.3	2
CC(c1ccccc1)n1c(Br)nc2c1c(=O)[nH]c(=O)n2C (configuration not stated)
 : 9%	0.0%	30	10%	0%[15.4 µM]	-0.9	-25
O=C(NCCc1c[nH]c2ccccc12)C1CCN(Cc2ccc(Br)cc2)CC1
 : 19%	1.3%	8	6%	25%	0.2	11
COc1ccc(OC)c(NC(=O)CSc2nnc(C3CCCCC3)n2N)c1
 : /	/	39	?	-12%[15.4 µM]	/	7
Cc1ccc(Cl)cc1N1CCN(CCCNC(=O)c2nnc(Cc3cccc(Cl)c3)o2)CC1
 : /	-3.9%	?	/	/	/	-1
COc1ccc(OC)c(-c2c[n+](=O)c3c(n2[O-])CCCC3)c1
 : -1%	1.2%	15	1%	5%	-0.4	5
Cc1ccc(C)c(/C=N/NC(=S)NC(C)C)c1
 : 4%	7.3%	-4	2%	-4%	0.7	-3
Cc1ccc2ncccc2c1NC(=S)NC(=O)c1ccccc1
 : -6%	/	-11	6%	0%[15.4 µM]	-0.8	3

# More entries
# Order of results: Sfp inh	ClpP mod	TRPML1 blocker	gsp antagonist	gsp agonist	Menin MLL FP FL	TRPV1 potentiator
O=C(CSc1nc2c(sc3ccccc32)c(=O)n1CCO)NCc1ccco1
 : -3%	-24%	-3	0%	1%	11	7
COC(=O)CCC(=O)NNC(=O)c1cccc(Br)c1
 : -5%	-2.4%	5	3%	-22%	-2.0	-2
Cc1ccc(S(=O)(=O)Nc2cccnc2)cc1C
 : 5%	0.6%	-8	8%	3%[15.4 µM]	1.7	10
Cc1cccc(N2CCN(C(=O)CNC(=O)C3CCCCC3)CC2)c1C
 : /	-1.5%	-1	0%	-10%	/	18
O=C(NCCc1c[nH]c2ccccc12)C(=O)NCC(c1ccco1)N1CCN(c2ccccc2F)CC1 (configuration not stated)
 : 2%	-3.5%	-8	-2%	?	6.3	6
COc1ccc(Cc2[nH]n3c(=O)cc(C)nc3c2-c2ccccc2)cc1
 : 6%	/	12	-14%	17%	-0.7	16

# Source: PubChem (National Center for Advancing Translational Sciences (NCATS))

# Rows are unselected, and some 4.9% of all compounds hit somewhere here.
